Screening results as filed in PubChem BioAssay.
FEN1 inh – inhibitors of human flap endonuclease 1; Recombinant FEN1 flap cleavage, fluorescence, 15 min; Potency, µM (highest dose often 114 µM), inactives show top-dose activity change, negative = inhibition, actives largely listed as inhibitors; AID 588795; P39748; 390,000 compounds, 0.35% hits; further: nearly all actives have a fitted effect of over 65% in size
Target sequence (P39748 whole entry, looked up): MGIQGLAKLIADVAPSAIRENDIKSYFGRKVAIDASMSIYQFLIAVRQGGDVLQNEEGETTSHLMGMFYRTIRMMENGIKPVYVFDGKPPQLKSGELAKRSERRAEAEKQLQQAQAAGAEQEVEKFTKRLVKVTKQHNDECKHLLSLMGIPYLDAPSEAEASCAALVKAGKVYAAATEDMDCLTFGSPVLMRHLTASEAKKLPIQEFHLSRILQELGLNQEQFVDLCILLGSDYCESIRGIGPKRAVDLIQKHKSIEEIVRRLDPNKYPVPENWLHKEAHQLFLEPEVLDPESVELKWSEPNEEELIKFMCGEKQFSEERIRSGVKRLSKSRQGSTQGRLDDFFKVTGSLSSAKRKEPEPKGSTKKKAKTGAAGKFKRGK
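FEN1 at 10 nM preincubated with compounds 15 min at room temperature, then flap DNA substrate added at 50 nM final. Signal read at 0 and 15 min; concentration-response fitted with four-parameter Hill equation.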
GCN5L2 inh – GCN5L2 (KAT2A) acetyltransferase inhibition; Q92830; GCN5L2 HAT assay, ThioGlo1 CoA-SH fluorescence; Potency, µM (series often up to 58.9 µM), for inactives: at the highest dose activity change, negative = inhibition, most hits filed as inhibitors; 390,000 compounds, 0.21% hits; AID 504327
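Preincubate 20nM GCN5L2 with compound 15 min, RT → add 50uM ThioGlo1 + 75uM H3(1-25) + 70uM acetyl-CoA → read fluorescence 0 and 20 min. Primary qHTS; fluorescent artifacts likely.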
* marks the source's active call; other numbers are inactive results; ? = inconclusive; & = joins results of further samples; [ ] = another dose, or the depositor's remark. The call rests on the fitted dose curve; in most records, active means well fitted curve in the direction sought with a large enough effect; inconclusive means small, poorly fitted or top-dose-only effect, or another doubt; inactive means no such curve, though single readings can be large; an effect the other way counts as inactive or inconclusive. On the % scale 0 is the no-effect control and ±100 the full control effect; potency means the concentration at half of the fitted maximal effect. Not all compounds are listed, and most or all hits are left out here.

SMILES	FEN1 inh	GCN5L2 inh
CC(=O)NCC1(O)CCCC(C)C1 (stereo not drawn)	-2%	2%
Cc1ccccc1NC(=O)c1c(Cl)nc(C)c(Cl)c1C	3%	-1%
CCNS(=O)(=O)c1ccc(NC(=O)Nc2cccc(OC)c2)cc1	-19%	?
O=C(Nc1ccc(O)cc1)c1cc2n(n1)C(C(F)(F)F)CC(c1ccco1)N2 (stereo not drawn)	-3%	-3%
CC1Cn2c(nc3c2c(=O)[nH]c(=O)n3C)O1 (stereo not drawn)	-2%	-3%
O=C(NCc1ccc(Cl)cc1)C1CCCN(S(=O)(=O)c2cnc[nH]2)C1 (stereo not drawn)	-1%	-5%
Cc1cccnc1CCNC(=O)CC1C(=O)NCCN1CC1CCCCC1 (stereo not drawn)	10%	2%
O=C1Nc2ccccc2C1Cc1ccccn1 (stereo not drawn)	0%	-5%
COc1ccc(-c2[nH]ncc2Oc2ccccc2OC)c(O)c1	-19%	-2%
O=C(CCSCCC(=O)NCCN1CCOCC1)NCCN1CCOCC1	-3%	-3%
COc1ccc(CCNC(=O)c2ccc(COc3ccccc3OC)o2)cc1	14%	-1%
O=C1CSCN1c1ccc(Cl)cc1	0%	1%
Cc1ccc(N2C(=O)C3CCCN3C2=S)cc1Cl (stereo not drawn)	13%	-1%
COc1cccc(N2CCN(C(=O)c3cccnc3)CC2)c1	-3%	2%
COc1cc(/C=C2\SC(=S)N(CCC(=O)NC3CCCC3)C2=O)cc(OC)c1OC	5%	1%

As a working copy, three of the compounds above:
SMILES	FEN1 inh	GCN5L2 inh
Cc1ccc(N2C(=O)C3CCCN3C2=S)cc1Cl (stereo not drawn)	13%	-1%
COc1cccc(N2CCN(C(=O)c3cccnc3)CC2)c1	-3%	2%
COc1cc(/C=C2\SC(=S)N(CCC(=O)NC3CCCC3)C2=O)cc(OC)c1OC	5%	1%

Next results follow:
SMILES	FEN1 inh	GCN5L2 inh
COC(=O)c1ccc2c(c1)NC(=O)C(N1CCCCC1)S2 (stereo not drawn)	7%	-3%
CC1(C)OC(C(=O)NC2CCCCC2)C(C(=O)NC2CCCCC2)O1 (stereo not drawn)	-11%	1%
N#CC1=C(O)CCCn2c1nc1ccccc1c2=O	-1%	-8%
CN(Cc1nnc(SCC(=O)NCCc2ccccc2)n1C)S(=O)(=O)c1ccccc1	-2%	-6%
CCOc1ccc(NS(=O)(=O)c2ccc(C(=O)NC3CCN(Cc4ccccc4)CC3)cc2)cc1	-13%	-5%
Cc1ccc(C)c(CN2C(=O)C3(OCCCO3)c3ccccc32)c1	-4%	2%
C=CCNC(=O)c1cnn(-c2ccccc2)c1-c1ccccc1	9%	14%
CC(C)(C)c1ccc(S(=O)(=O)N2CCN(CCC#N)CC2)cc1	2%	3%
CC(=O)Nc1ccc2nc(NC(=O)CS(=O)(=O)c3ccccc3)sc2c1	-1%	-2%
Cn1c(CNC(=O)c2ccco2)nnc1SCC(=O)N1CCN(c2ccccc2F)CC1	13%	-20%
O=C(c1ccco1)N(Cc1ccc(Cl)cc1)C1CCS(=O)(=O)C1 (stereo not drawn)	5%	0%
CCOC(=O)c1ccc(NC(=O)N2CCN(c3cccc(OC)c3)CC2)cc1	-4%	-10%
CC1CCN(c2ccccc2N)CC1	12%	-1%
Cc1snc(SCc2c(F)cccc2Cl)c1C#N	-16%	-13%
Cc1c(/C(O)=C2\C(=O)C(=O)N(CCCN(C)C)C2c2ccccc2)cnn1-c1ccccc1 (stereo not drawn)	-16%	-4%
Cn1c(NCCN2CCOCC2)nc2c1c(=O)n(Cc1cccc(Cl)c1)c(=O)n2C	-2%	-7%
Cc1ccc(/C=C2\SC(=S)N(CCC(=O)NNC(=O)c3ccncc3)C2=O)cc1	3%	-6%
COc1cc(OC)c(OC)cc1/C=C/C(=O)c1ccc(NS(=O)(=O)c2ccc(C)cc2)cc1	-19%	-10%
CCOC(=O)c1cc(NC(=O)N(CC)C2CCCCC2)c(C)nc1C	11%	-7%
CC1(C)CC(=O)C2=C(C1)OC(N)=C(C#N)C2c1ccccc1OC(=O)N1CCOCC1 (stereo not drawn)	-9%	-8%
COc1ccccc1NC(=S)N(C(C)C)C(C)c1ccccn1 (stereo not drawn)	4%	-2%
Cc1nc2sc(C(c3ccco3)N3CCC(C)CC3)c(O)n2n1 (stereo not drawn)	11%	-1%
Cc1ccccc1-c1nc(CS(=O)(=O)CC(=O)N2CCCCC2)c(C)o1	1%	-1%
COC(=O)c1ccc(NC(=O)c2cccc(N3C(=O)C4C5C=CC(C6CC56)C4C3=O)c2)cc1 (stereo not drawn)	-6%	-3%
Cc1ccc(CNC(=O)c2ccc(N3CCc4ccccc43)c([N+](=O)[O-])c2)cc1	-16%	-2%
O=C(CCn1cccc1)NC1CCCc2ccccc21 (stereo not drawn)	16%	-1%
O=C(O)c1ccc(Cn2cnc3sc4c(c3c2=O)CCCC4)cc1	12%	2%
C/C(=N\Nc1cc(N2CCCCC2)nc(C)n1)c1ccc(Br)cc1	-21%	-6%
O=C(COc1ccc(S(=O)(=O)NCc2ccccc2)cc1Cl)NCc1ccncc1	-1%	-4%
CCOc1ccccc1N/C=C(\C#N)c1nc2ccccc2n1C	6%	1%

Record cards, as listed above. Order of values: FEN1 inh, GCN5L2 inh
Profile of `O=C(COc1ccc(S(=O)(=O)NCc2ccccc2)cc1Cl)NCc1ccncc1` → -1%, -4%
Profile of `CC1(C)CC(=O)C2=C(C1)OC(N)=C(C#N)C2c1ccccc1OC(=O)N1CCOCC1` (stereo not drawn) → -9%, -8%
Profile of `Cc1ccc(/C=C2\SC(=S)N(CCC(=O)NNC(=O)c3ccncc3)C2=O)cc1` → 3%, -6%

(cont.)
SMILES	FEN1 inh	GCN5L2 inh
Cc1oc(-c2ccccc2F)nc1CN1CCC(C(=O)NCc2cccs2)CC1	35%[activator]	-8%
Cc1ccnc(NC(=O)c2ccc(Cl)c(NC(=O)c3ccccc3C)c2)c1	2%	3%
Cc1cc2sc(NC(=O)c3ccco3)nc2cc1Cl	-11%	-14%
CN1CCc2cc3c(c4c2C1CC41CCC(=NO)CC1)OCO3 (stereo not drawn)	2%	-4%
NNC(=O)c1cc(C2CC2)nc2ccc(Br)cc12	-8%	-6%
CCN(CC)CCCNC(=O)Cn1ncc2c(=O)oc3ccc(C)cc3c21	14%	-1%
Cn1cnnc1SCC(=O)c1cc2ccccc2o1	-9%	-2%
O=C(CSc1nncn1-c1cccnc1)Nc1cccc(C(F)(F)F)c1	3%	-9%
O=c1c([N+](=O)[O-])c[nH]c2ccccc12	-4%	-1%
Cc1ccc(C(=O)COC(=O)c2cn3ccccc3n2)cc1	-5%	0%
Cc1nn(C)c(C(=O)N2CCc3ccccc32)c1Cl	1%	0%
CN1CCN(C(=O)Cn2c(C(F)(F)F)nc3ccccc32)CC1	13%	-2%
O=C(Nc1ccc2oc(-c3cccnc3)nc2c1)c1ccco1	6%	-15%
C=CCOc1ccccc1CN1CCC(CO)(CCOc2ccccc2)CC1	-6%	-8%
COC(C[C@H]1O[C@H]1[C@H](O)[C@H](C)OCc1ccccc1)OC	-9%	1%

Looked up above.
NNC(=O)c1cc(C2CC2)nc2ccc(Br)cc12 in GCN5L2 inh reads -6%
Cc1oc(-c2ccccc2F)nc1CN1CCC(C(=O)NCc2cccs2)CC1 in GCN5L2 inh reads -8%

Later entries:
SMILES	FEN1 inh	GCN5L2 inh
CCOC(=O)c1cnc(SCC(=O)Nc2cccc(OC)c2)nc1N	-19%	-3%
C/C(=N\NC(=O)c1c(Cl)cnn1C)c1cccnc1	-6%	-10%
COc1ccc(N2CC(C(=O)N[C@H](C(=O)NC3CCCCC3)C(C)C)CC2=O)cc1 (stereo partly drawn)	-15%	1%
Cc1nc(NCC2CC2)c2nnn(Cc3ccccc3)c2n1	-2%	12%
Cc1cccc(C)c1OCc1cc(C(=O)NCC2CCCCC2)no1	19%	-1%
COc1ccc(NC(=O)CCNS(=O)(=O)c2ccc3c(c2)c(=O)n(C)c(=O)n3C)c(OC)c1	4%	-2%
CCCc1cc(=O)n2[nH]c(-c3ccco3)nc2n1	42%	-4%
O=C(c1cccc2nc3ccccc3nc12)N1CCOCC1	8%	-2%
NC(=O)c1nsc(C(=O)N(Cc2cccnc2)C(C(=O)NC2CCCC2)c2ccc(F)cc2)c1N (stereo not drawn)	-8%	-1%
Cc1ccc(C(=O)N/C(=C/c2ccc(-c3ccc(Br)cc3)o2)C(=O)NC2CCS(=O)(=O)C2)cc1 (stereo not drawn)	1%	-10%
O=C(COC(=O)c1cccc(Br)c1)Nc1cccc2c1C(=O)c1ccccc1C2=O	-1%	3%
Cc1ccc(S(=O)(=O)N2CCOCC2)cc1NC(=O)CSc1n[nH]c(N)n1	-9%	-4%
CC(=O)c1c(N2CCN(C)CC2)[nH]c(-c2ccccc2)nc1=S	-13%	1%
Cc1ccccc1CN1CCNC(=O)C1CC(=O)NCCN1CCCCC1=O (stereo not drawn)	-2%	-14%
COc1ccc(NC2CCCN(C(=O)c3cccc(C)n3)C2)cc1OC (stereo not drawn)	1%	1%
COc1ccc(C2C(C(C)=O)=C(O)C(=O)N2CCCn2ccnc2)cc1 (stereo not drawn)	8%	-12%
COc1ccc(S(=O)(=O)NCC2CCCN(Cc3cccnc3)C2)cc1 (stereo not drawn)	-2%	-22%
CC(NC(=O)C1CCC(CNc2c(N3CCCCC3)c(=O)c2=O)CC1)c1ccccc1 (stereo not drawn)	10%	-28%
Cc1cc(N2CCOCC2)nc(-c2ccc(Br)cc2)n1	-18%	-9%
Cc1ccc(S(=O)(=O)N2CCN(CCC#N)CC2)cc1	-8%	-8%
COc1cc(OC)cc(C(=O)O/N=C(\N)c2ccncc2)c1	0%	-3%
CCOc1ccc(/C=C2\NC(=S)NC2=O)cc1	-19%	-2%
O=C(CSc1nc(C(F)(F)F)cc(=O)[nH]1)Nc1nccs1	-2%	2%
NNC(=O)c1sc(-c2ccccc2)cc1N	-6%	-14%
COc1ccc(-c2nnc(SCCC(=O)O)n2C)cc1OC	0%	1%
CC(C)CCC1=NN(C(=O)c2ccco2)C(O)(C(F)(F)F)C1 (stereo not drawn)	-11%	-18%
Cn1nnnc1SCC(=O)Nc1ccc(Oc2ccc(Cl)cc2)cc1	9%	-10%
C[C@@H](C(=O)CC(=O)OC(C)(C)C)[C@@H](O)c1ccccc1	0%&-14%	-5%
CCOC(=O)c1cccc(P(=O)(C(C)(C)C)C(C)(C)C)c1	1%	-11%
CCc1c(O)nc(SCC(=O)Nc2ccc(OC)cc2)n(C2CCCCC2)c1=O	6%	-14%

Five entries picked at random from those above:
SMILES	FEN1 inh	GCN5L2 inh
Cc1ccc(S(=O)(=O)N2CCN(CCC#N)CC2)cc1	-8%	-8%
C[C@@H](C(=O)CC(=O)OC(C)(C)C)[C@@H](O)c1ccccc1	0%&-14%	-5%
NNC(=O)c1sc(-c2ccccc2)cc1N	-6%	-14%
O=C(CSc1nc(C(F)(F)F)cc(=O)[nH]1)Nc1nccs1	-2%	2%
CCOc1ccc(/C=C2\NC(=S)NC2=O)cc1	-19%	-2%

Following part
SMILES	FEN1 inh	GCN5L2 inh
Cc1cccc(N2C(=O)C3CCC(c4ccccc4)CC3C2=O)c1 (stereo not drawn)	-13%	-7%
CC(C)[C@H](N)c1cn([C@@H](CO)C(=O)N2CCNCC2)nn1	14%	-1%
COc1cccc(C(=O)Nc2ccc(-c3nnc(-c4ccco4)o3)cc2)c1	-2%	-5%
Cc1oc(-c2ccccc2)nc1C(=O)O	-1%	-1%
O=Cc1ccc(OCC(=O)Nc2ccccc2C(F)(F)F)cc1	0%	0%
COc1ccc(Cl)cc1NC(=O)CNc1ccc(F)cc1C	2%	-2%
O=c1c2cc(N3CCOCC3)ccc2[nH]c(=S)n1CCN1CCCC1	-15%	-19%
NC(=O)CSc1nnnn1-c1cccc(Cl)c1	1%	-3%
